Source: PubChem BioAssay (several laboratories)
Mtb hypoxia rep = PubChem AID 1159583; 0.1% of 300,000 active; M. tuberculosis hypoxia-regulated fluorescent reporter, fluorescence; fluorescence inhibition, % (test concentration not listed);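 active = 35 to 45% if threefold the growth effect, above 45% if 1.5-fold the growth effect; inactive = the rest, general growth blockers included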;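 note: wells of about 50 µL received 100 nL stock; 0% = vehicle wells and 100% = reference inhibitor wells; whole bacteria with a GFP reporter of the hypoxia response; strong numbers were not always called active; many hits fall short of the cut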
Bead autofluor = compound fluorescence in toxin protease inhibitor counterscreen; AID 624483; compound autofluorescence counterscreen, microsphere flow cytometry; hits give high values; 3.1% of 360,000 active; fluorescence intensity (no concentration beside the values);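 active = at least 3 SD above the mean of all compounds, about 16000 in these data; inconclusive = too few beads counted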;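 note: 100 nL of 1 mM stock went into each well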
Sa RN4220 lethal = growth inhibition of S. aureus RN4220, primary screen, OD600. 16 h. inhibition, % (test concentration not listed). 0.33% of 330,000 active;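 active = z-score of -3 or lower and OD600 up to 0.18 on both plates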;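 note: plate controls were untreated cells for no effect and reference antibiotic for full effect; stock transfer was 100 nL into about 80 µL; one replicate is shown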
Sa ugtP lethal = growth inhibition of ugtP-null S. aureus, primary screen, RN4220 ugtP deletion, OD600. AID 1259309, 2017. 0.54% of 330,000 active. 16 h; some inactives read as strong as hits. growth inhibition, % (concentration not given with the values);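 active = z-score under -3 and OD600 up to 0.15 on both plates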;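 note: plate controls were untreated wells for no effect and antibiotic for full effect; wells of about 80 µL received 100 nL stock; the first replicate is given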
BJeLR lethal = MLPCN primary cell-based screen for lethality selective to Ras in HRASV12 cells; BJeLR (HRASV12) viability, CellTiter-Glo ATP luminescence, 48 h; reference of the scale not given here; inhibition, % (no concentration beside the values); 0.17% of 300,000 active; AID 1554, 2009;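 active = replicate mean above 50%; inconclusive = above 50% but judged a plate artefact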;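 note: 50 nL library stock added to about 25 µL; numbers are from one replicate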
PrP UTR inh = inhibition of PrP 5' UTR reporter expression | cell-based PrP 5' UTR mRNA reporter, plate reader | inhibition, % (no concentration beside the values) | 0.35% of 340,000 active | AID 488862, 2010;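 active = every replicate at 50% or more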;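 note: 0 = median of the neutral control wells; tested in H4 reporter cells; numbers are from one replicate; inactives centre near -14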
Mtb hypoxia rep growth = second read-out of Mtb hypoxia rep, no call of its own (marks repeat the call); growth inhibition, %; measured here: M. tuberculosis growth (absorbance);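 0% = vehicle and 100% = reference antibiotic; read after six days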
* hit, by the source's call; ? = inconclusive; nt = not tested or not shown.

SMILES	Mtb hypoxia rep	Mtb hypoxia rep growth	Bead autofluor	Sa RN4220 lethal	Sa ugtP lethal	BJeLR lethal	PrP UTR inh
Cc1nnsc1C(=O)NNC(=O)c1cccc2ccccc12	11	0	3369	3.9	0	1	-23
CSc1nc(N)nc(C2CC2)n1	11	9	nt	5.3	14	-2	-43
O=C1CSC(c2ccc(Cl)cc2)N1C1CCCCC1 (centres undefined)	nt	nt	3469	1.2	10	-4	-20
COc1ccc(CNS(=O)(=O)c2ccc3c(c2)CCN3C(=O)C2CCC2)cc1	3	1	5827	6.2	6	3	-2
CCC1SC(CC)C(=O)N(CC(=O)Nc2ccc3c(c2)OCO3)C1=O (centres undefined)	-9	-6	2659	1.1	-3	-1	-20
O=C(Nc1cccc(S(=O)(=O)N2CCCCC2)c1)C1CC(=O)N(c2ccc3c(c2)OCCO3)C1 (centres undefined)	9	7	5908	3.9	-4	11	-9
C#CCOCCOCCOCCNc1nc(N2CCN(C(=O)C(Cc3cc4ccccc4[nH]3)n3cc(C(N)Cc4ccc(O)cc4)nn3)CC2)nc(N2CCN(C(=O)C(CCC(=O)O)n3cc(C(N)C(C)CC)nn3)CC2)n1 (centres undefined)	2	9	4396	5.4	-8	nt	-10
CCCC(=O)Nc1ccccc1NC(=O)c1ccc(OCC)c(OCC)c1	-7	2	3666	1.9	3	1	-18
CC(OC(=O)c1c2c(nc3ccccc13)/C(=C\c1ccc3c(c1)OCO3)CCC2)C(=O)Nc1ccc(S(N)(=O)=O)cc1 (centres undefined)	11	9	3070	-9.7	32	nt	3
COC(=O)C1=C(c2ccc(F)cc2OCc2ccccc2)C[C@@H]2CC[C@H]1N2C(=O)NCc1ccc(Br)cc1	7	4	3654	-29	-6	nt	-14
CN(C)c1cccc(C(=O)NC2CCCCCC2)c1	nt	nt	2777	-5.0	0	10	-86
CC1(C)CC(=O)C(C2=NC(C)(C)Cc3ccccc32)=C(O)C1	12	8	8123	6.3	2	12	-12
COc1cc2nc(COc3ccc(C#N)cc3)n(CC#N)c(=O)c2cc1OC	21	-20	2863	-17	-4	-3	-24
CC1(C)CC(NCc2ccc3c(c2)OCO3)CCO1 (centres undefined)	5	3	8687	1.9	-2	-1	-10
CC1CCCN(C(=O)C2CCN(Cc3ccc4c(c3)OCO4)CC2)C1 (centres undefined)	7	6	5553	1.8	1	6	3
C=CCn1c(C)c(C(C)=O)c(SC)nc1=S	5	11	11586	5.7	1	3	-9
COc1ccc(OCC(=O)O/N=C(\N)c2ccc(OC)c(OC)c2)cc1	4	6	2130	4.5	20	-1	-70
COC(=O)c1cccc(-c2ccc(/C=N/N3C(=O)C4C5C=CC(C6CC56)C4C3=O)o2)c1 (centres undefined)	nt	nt	3639	nt	nt	-1	-17
CN(C)C(CNC(=O)c1ccc(S(=O)(=O)Nc2ccccc2F)cc1)c1ccccc1 (centres undefined)	6	7	4322	2.4	-1	11	-6
COc1ccc(-n2c(CNC(=O)COc3ccc(Cl)cc3Cl)n[nH]c2=S)cc1	8	9	4546	4.4	7	-6	-11
CCCCC(=O)NC(c1cccs1)c1cc(Cl)c2cccnc2c1O (centres undefined)	13	2	4263	64	14	-5	5
O=C(NCc1ccccc1)c1cc(=O)c2ccccc2o1	2	1	2143	0.0	7	1	-7
C[C@H](CO)N1C[C@H](C)[C@@H](CN(C)Cc2ccc(Cl)c(Cl)c2)Oc2c(NS(=O)(=O)c3cccs3)cccc2C1=O	1	6	2753	-1.4	-17	nt	-3
C#CCOCCOCCOCCNc1nc(N2CCN(C(=O)[C@H](CCC(=O)O)n3cc(CN)nn3)CC2)nc(N2CCN(C(=O)[C@H](CCC(=O)O)n3cc([C@@H](N)[C@H](C)CC)nn3)CC2)n1	3	4	3708	1.9	9	nt	-19

Among those listed so far, 6 have a halogen:
SMILES	Mtb hypoxia rep	Mtb hypoxia rep growth	Bead autofluor	Sa RN4220 lethal	Sa ugtP lethal	BJeLR lethal	PrP UTR inh
O=C1CSC(c2ccc(Cl)cc2)N1C1CCCCC1 (centres undefined)	nt	nt	3469	1.2	10	-4	-20
COC(=O)C1=C(c2ccc(F)cc2OCc2ccccc2)C[C@@H]2CC[C@H]1N2C(=O)NCc1ccc(Br)cc1	7	4	3654	-29	-6	nt	-14
CN(C)C(CNC(=O)c1ccc(S(=O)(=O)Nc2ccccc2F)cc1)c1ccccc1 (centres undefined)	6	7	4322	2.4	-1	11	-6
COc1ccc(-n2c(CNC(=O)COc3ccc(Cl)cc3Cl)n[nH]c2=S)cc1	8	9	4546	4.4	7	-6	-11
CCCCC(=O)NC(c1cccs1)c1cc(Cl)c2cccnc2c1O (centres undefined)	13	2	4263	64	14	-5	5
C[C@H](CO)N1C[C@H](C)[C@@H](CN(C)Cc2ccc(Cl)c(Cl)c2)Oc2c(NS(=O)(=O)c3cccs3)cccc2C1=O	1	6	2753	-1.4	-17	nt	-3

(list continues)
SMILES	Mtb hypoxia rep	Mtb hypoxia rep growth	Bead autofluor	Sa RN4220 lethal	Sa ugtP lethal	BJeLR lethal	PrP UTR inh
Cc1cccc(NC(=O)CCSc2nncn2C)c1	5	19	22260*	6.3	1	1	-9
COC(=O)C1=C(N)Oc2cc(C)n(CCN3CCOCC3)c(=O)c2C1c1cccnc1 (centres undefined)	7	4	9318	4.0	4	-6	-4
COc1cccc(C(O)C2OC(=O)c3ccccc32)c1OC (centres undefined)	18	9	5833	3.7	6	-2	nt
CC(C)N(CC(N)=O)c1ncnc2sc(-c3ccccc3)cc12	4	-8	3896	1.4	-9	4	-11
CC1CCCN(S(=O)(=O)c2ccc(C(=O)Nc3nnc(-c4ccccc4Cl)o3)cc2)C1 (centres undefined)	8	7	4460	53	22	14	14
O=C(NN1C(=O)C2C3C=CC(C4CC34)C2C1=O)c1ccc(Cl)c(Cl)c1 (centres undefined)	2	9	1979	9.7	7	3	-25
CC1=C(C#N)C(c2ccc(O)cc2)C2=C(CCCC2=O)N1 (centres undefined)	5	12	2060	3.2	0	6	-13
O=C(COc1ccc2ccc(=O)oc2c1)NC1CCCC1	4	4	?	5.4	17	-1	1
COc1ccc(NC(=O)C(C)N2c3cccc4cccc(c34)S2(=O)=O)cc1OC (centres undefined)	11	7	10491	2.8	-8	-5	-19
Cc1cc(NC(=O)CCC(=O)N(c2ccc(F)cc2)C2(C(=O)NC3CCCCC3)CCCC2)no1	2	0	4757	-1.0	-9	-10	-25
C/C(=N/N=C1/NC(=O)CC(C(=O)O)S1)c1ccccc1 (centres undefined)	nt	nt	2436	nt	nt	-14	-11
O=C(O)CCC(=O)NNC(=O)CCC1CCCCC1	2	-3	2042	5.3	10	1	-33

Compound profiles, as listed above. Screens in order: Mtb hypoxia rep | Mtb hypoxia rep growth | Bead autofluor | Sa RN4220 lethal | Sa ugtP lethal | BJeLR lethal | PrP UTR inh
`COc1ccc(CNS(=O)(=O)c2ccc3c(c2)CCN3C(=O)C2CCC2)cc1` as listed: 3 | 1 | 5827 | 6.2 | 6 | 3 | -2
`CC1CCCN(C(=O)C2CCN(Cc3ccc4c(c3)OCO4)CC2)C1` (centres undefined) as listed: 7 | 6 | 5553 | 1.8 | 1 | 6 | 3

Next compounds follow.
SMILES	Mtb hypoxia rep	Mtb hypoxia rep growth	Bead autofluor	Sa RN4220 lethal	Sa ugtP lethal	BJeLR lethal	PrP UTR inh
COc1ccccc1NC(=O)c1cnc(Nc2ccccc2OC)c2ccccc12	20	4	7306	11	-4	32	-18
O=C(C1=C[C@H](C2CCCCC2)C[C@H](OCc2ccc(CO)cc2)O1)N1CCN(Cc2ccc3c(c2)OCO3)CC1	nt	nt	4336	nt	nt	10	-4
CC(=O)c1ccc(N=C2SCCCN2C(=O)C2CCCC2)cc1	5	5	3917	15	7	6	0
NC(=O)COc1c(-c2ccccc2)oc2ccccc2c1=O	18	6	7398	4.7	4	13	-2
O=C(C1=CC(c2ccc3c(c2)OCO3)CC(OCc2ccc(CO)cc2)O1)N1CCCCCCC1 (centres undefined)	0	8	nt	9.5	8	nt	nt
Cn1c(=O)cc(OCCCC(=O)N2CCC3(CC2)OCCO3)c2ccccc21	6	5	4019	2.9	0	1	-12
COC(=O)[C@@H]1C[C@@H]2CC[C@@H](O)C[C@@H]2N1Cc1ccc(C(F)(F)F)cc1	nt	nt	4598	nt	nt	6	-12
N=c1n(CCO)c2ccccc2n1CCOc1ccc(Cl)cc1Cl	9	12	5910	-5.6	-2	8	-13
COc1cc(CCCN2C(=O)C(=O)NCC2CC2CCCCC2)cc(OC)c1OC (centres undefined)	25	8	nt	7.6	3	nt	nt
CN(c1ccccc1C(=O)Nc1ccc(S(=O)(=O)N2CCCCC2)cc1)S(C)(=O)=O	2	15	20379*	7.2	5	0	-54
CCc1cccc(C)c1N=Cc1c(O)c2ccccc2oc1=O	12	-1	4502	3.9	0	-5	-16
COC(=O)C(CC(C(=O)OC)C(=O)OC)C(=O)OC	nt	nt	4705	-0.1	4	-5	-15
Cc1c(CCC(=O)N[C@@H](C)C(=O)O)c(=O)oc2c(C)c3oc4c(c3cc12)CCCC4	4	-7	2999	5.6	-1	-4	-17
CCOc1cc(N2CCOCC2)c(OCC)cc1NC(=O)c1ccc(S(=O)(=O)N(C)C)cc1	10	1	4500	4.0	-1	-5	-17
O=C(Nc1ccccn1)c1cccc(S(=O)(=O)N2CCCc3ccccc32)c1	5	-1	3149	7.5	-10	nt	0
O=c1c2ccccc2[nH]c2ccc(O)cc12	-2	2	5120	4.4	-5	-5	-28
CC1(NC(=O)Cc2ccc(Cl)c(Cl)c2)CCS(=O)(=O)C1 (centres undefined)	-1	4	4504	-0.9	-1	nt	-21
Cc1ccccc1OCCCC(=O)Nc1ccc(Br)cc1	nt	nt	4538	2.8	-2	4	-11
COc1ccccc1N1CCN(Cc2cn[nH]c2-c2ccc(F)cc2)CC1	-3	-2	6076	0.9	-1	4	-4
CC(=O)C(C)Oc1ccc2c3c(c(=O)oc2c1)CCCCC3 (centres undefined)	8	8	19944*	3.5	3	0	-47
COCCCN(CC(=O)O)S(=O)(=O)c1ccccc1	-2	-2	4210	1.9	-9	-7	-25
O=c1cccc2n1CC1CC2CN(c2nc(N3CCCCC3)nc(N3CCCCC3)n2)C1 (centres undefined)	nt	nt	4404	nt	nt	26	6
C=CCOc1ccc(C=Nc2ccc(C)c(Cl)c2)c(O)c1	-2	6	2466	2.6	5	-1	-28
CN1CCN(c2ccc(Cl)cc2NC(=O)/C=C/c2cccc(F)c2)CC1	4	1	4893	-7.8	9	-13	-9
CC1Oc2ccccc2N(CC(=O)NC2CCCC2)C1=O (centres undefined)	14	8	3948	2.0	12	-3	-25
CN(C)CCCN=c1cc(-c2ccccc2)oc2ccc(Cl)cc12	16	2	3694	2.7	-20	nt	-83
COC(=O)c1cc(/C=C/c2ccccc2)on1	nt	nt	2313	9.5	12	1	-13
O=C(NCC(c1cccnc1)N1CCN(c2ccccc2)CC1)C1CCCCC1 (centres undefined)	4	5	10011	2.9	-4	4	-9
O=C(N/N=C/c1c[nH]c2ccccc12)c1ccc([N+](=O)[O-])cc1Cl	nt	nt	4196	nt	nt	5	-12
O=C(COC(=O)C1CC(=O)N(Cc2ccco2)C1)c1ccc(OC(=O)c2ccccc2)cc1 (centres undefined)	7	8	3359	-2.8	-13	-5	-41
COc1ccccc1C(=O)NCC(=O)N1CC=C(c2ccccc2)CC1	2	3	?	3.6	-15	nt	-9
COc1cc(C=NO)ccc1Oc1cnccn1	-10	-4	nt	1.4	1	nt	nt
CCOc1ccc2oc(C(=O)Nc3ccc4c(c3)OCO4)c(C)c2c1	5	3	5683	-3.1	-10	-4	-44
CCOC(=O)c1cc(-c2cccnc2)nn1-c1ccccc1	11	5	3632	9.9	8	-1	13
CC(C)(C)OC(=O)CC1CC=CCC(CC(=O)NCCO)C(=O)NC(Cc2c[nH]c3ccccc23)COC1=O (centres undefined)	1	7	nt	5.4	-3	nt	nt
